Assay outcomes deposited in PubChem by several laboratories.
CBX7 AlphaScr – CBX7 chromodomain binding inhibitors, primary screen, biochemical, AlphaScreen. 66,000 tested, 1.1% active. normalised signal (fraction of DMSO) (no concentration beside the values). AlphaScreen His6-CBX7 / biotin-H3K27me3 peptide binding; stronger effect = lower value; in the data active means normalised signal below about 0.5;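 further: 100 nL library stock added to about 20 µL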
Target sequence (O95931 whole entry, looked up): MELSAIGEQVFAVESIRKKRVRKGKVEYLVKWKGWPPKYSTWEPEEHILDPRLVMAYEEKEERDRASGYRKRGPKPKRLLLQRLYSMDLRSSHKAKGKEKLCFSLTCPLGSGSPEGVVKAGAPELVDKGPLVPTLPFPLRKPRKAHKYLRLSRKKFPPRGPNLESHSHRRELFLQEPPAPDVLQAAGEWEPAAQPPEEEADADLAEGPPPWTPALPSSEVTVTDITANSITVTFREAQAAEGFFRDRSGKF
CBX7 AlphaScr z-score – also measured in CBX7 AlphaScr; calls as there; z-score; measured here: z-score of CBX7 signal; some inactives read as strong as hits; reference of the scale not given here;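 same signal on another scale; lower means less binding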
* = called active by the depositor; & = joins results of further samples. An excerpt; count on the stated rates, not on these rows.

smiles | CBX7 AlphaScr | CBX7 AlphaScr z-score
OCCCn1c(-c2ccc(Cl)cc2)cn2c3ccccc3nc12 | 0.71 | -1.8
COc1ccccc1NC(=O)c1cc(-c2ccc(Br)cc2)nc2ccccc12 | 1 | 0.26
C=C(C)c1cccc(C(C)(C)NC(=O)Nc2ccc(OCC)cc2)c1 | 0.9 | -0.75
Cn1c(=O)n(CCOc2ccc(Br)cc2)c2ccccc21 | 1 | 0.5
Cc1cc(C)n(Cc2ccccc2Cl)c(=O)c1C#N | 1.1 | 2.7
CCCCC(=O)NCCc1cc2ccc(OC)cc2[nH]c1=O | 1 | 0.98
O=C(Nc1ccccc1F)c1cc(-c2ccccc2Cl)nc2ccccc12 | 1.2 | 0.67
CCOC(=O)c1ccc(Nc2nc3nonc3[nH]c2=O)cc1 | 1 | 0.046
O=C(CSc1nnc(Cc2c[nH]c3ccccc23)n1Cc1ccccc1)c1c[nH]c2ccccc12 | 0.95 | -1.3
CC1CC(C)CN(S(=O)(=O)c2ccc3c(c2)N(CC(=O)NCCCOC(C)C)C(=O)CO3)C1 (centres undefined) | 1 | 1.3
COc1ccc(S(=O)(=O)N2CC=C(C(=O)Nc3nccs3)CC2)cc1 | 1.1 | 2.7
CCCOc1ccc(N2CC(C(=O)Nc3ccc(F)cc3)CC2=O)cc1 (centres undefined) | 1 | 1.1
CCn1c(=O)c(C(=O)NC(C)c2ccccc2)c(O)c2ccccc21 (centres undefined) | 1.4 | 2.5
COCCNC(=O)c1sc2ncn(CC(=O)Nc3ccc(C)c(Cl)c3)c(=O)c2c1C | 0.97 | -0.93
COc1ccccc1-n1cnc2cc(C(=O)NCc3ccccn3)ccc21 | 0.8 | -0.2
CCOC(=O)C1CCCN(C(=O)C2CCN(c3nc4ccccc4[nH]3)CC2)C1 (centres undefined) | 0.99 | -0.17
Cc1n[nH]c(C)c1CCCCOc1cccc(Cl)c1 | 1.1 | 1.6
Clc1ccc2nc(-c3cccs3)c(Nc3ccc4c(c3)OCO4)n2c1 | 1 | 0.052
CCOc1ccc(NC(=O)CSc2nc3ccccc3nc2Cc2ccccc2OC)cc1 | 1 | 0.14
COc1ccc(NC(=O)c2cnn(-c3ccc(F)cc3)c2C2CCNCC2)cc1OC | 0.91 | -1.7
COc1ccc(NC(=O)Cn2cc(S(=O)(=O)c3ccccc3)c(=O)c3ccccc32)cc1 | 0.84 | -2.3
COc1ccc(NC(=O)Cn2cnc3scc(-c4ccccc4)c3c2=O)cc1OC | 0.92 | -2.1
COc1ccc(S(=O)(=O)NCCc2c(C)[nH]c3c(Cl)cccc23)cc1C | 0.6 | -1.1
CCC(=O)NCCc1cc2ccc(C)c(C)c2[nH]c1=O | 1.1 | 1.9
CCN1CCN(c2cc(C)c3cc(NC(=O)C4CC4)ccc3n2)CC1 | 1.2 | 1.3
Cc1ccc2cc(CCNC(=O)CCc3ccccc3)c(=O)[nH]c2c1C | 1.1 | 1.5
COc1ccc2[nH]c(C)c(CCNCC(C)Cc3ccc4c(c3)OCO4)c2c1 (centres undefined) | 0.34* | -12*
Cc1ccc(-c2cc(C(=O)NCCN(C)C)c3ccccc3n2)cc1C | 1.3 | 2.4
COc1cc(C#N)ccc1OCc1nc(-c2ccc(Cl)cc2)no1 | 1.2 | 2
Cc1ccc(NC(=O)C(c2ccc(Cl)cc2)N2CCOCC2)cc1 (centres undefined) | 1 | 0.42
O=C(Nc1cccc(-c2nc3ccccc3s2)c1)c1ccc(S(=O)(=O)N2CCCCC2)cc1 | 1 | 0.31
O=C(Nc1ccc2nc(-c3cccnc3)[nH]c2c1)c1ccccc1F | 1 | 0.043
CCOC(=O)c1ccc(Nc2[nH]c(=O)c3ccccc3c2C(=O)c2ccncc2)cc1 | 0.92 | -1
O=C(CN1C2=NCCN2c2ccccc21)c1cccc2ccccc12 | 0.89 | -2.1
CC1CN(c2cc3c(cc2F)c(=O)c(C(=O)O)cn3-c2ccc(F)cc2)CCN1 (centres undefined) | 0.99 | -0.21
COc1cc(OC)cc(-c2cc3nc(C)c(CCC(=O)Nc4ccc(C)cc4C)c(C)n3n2)c1 | 1.2 | 2.9
Cn1cc(C(=O)Nc2ccc(F)cc2)c2c3ccccc3n(C)c2c1=O | 1.1 | 0.65
CN1CCc2c(nnn2-c2ccccc2)C1 | 1 | 0.91
CCOC(=O)c1cc(-c2ccccc2)n(CCC(=O)N2CCCC(C)C2)c1C (centres undefined) | 0.63 | -3.9
Cc1ccc(CNC(=O)c2ccc3c(c2)N(Cc2cccc(C)c2)C(=O)CS3)cc1 | 0.98 | -0.51
CC(C)OCCCNC(=O)[C@@H](c1ccccc1)N1Cc2ccccc2C1=O | 1 | 0.63
CCC1CCCCN1S(=O)(=O)c1ccc2c(c1)CCN2C(=O)C1CC1 (centres undefined) | 1.1 | 2.3
Cc1ccc(C)c2[nH]c(=O)c(CCNC(=O)c3cccc(F)c3)cc12 | 1 | 0.71
Cc1onc(-c2c(Cl)cccc2Cl)c1C(=O)N1CCN(c2ccccc2F)CC1 | 0.84 | -0.19
CCN(CCNC(=O)CC1C(=O)N(Cc2ccccc2)C(C)c2nc3ccccc3n21)c1ccccc1 (centres undefined) | 0.88 | -5.8
Cc1cccc(N2CCN(C(=O)CN3C(=O)CCSc4ccccc43)CC2C)c1 (centres undefined) | 1 | 0.33
CCOc1ccc(-n2nc(C(=O)Nc3cc(Cl)c(OC)cc3OC)c3ccccc3c2=O)cc1 | 0.92 | -1
O=C(Nc1cccc(Cl)c1)C1CC1(c1ccccc1)c1ccccc1 (centres undefined) | 1.1 | 2.4
O=C(Cc1cccc2ccccc12)Nc1ncc(Cc2ccc(Cl)c(Cl)c2)s1 | 1 | 0.22
O=C(CSc1nc2ccc(NC(=O)c3ccccc3Cl)cc2s1)Nc1ccccc1 | 0.85 | -2.4
O=C(NCc1ccccc1Cl)C1CCCN(C(=O)c2cnn(-c3ccccc3)c2-n2cccc2)C1 (centres undefined) | 0.88 | -0.88
CNS(=O)(=O)c1cc(-c2nnc(Nc3ccc(C(=O)OC)cc3)c3ccccc23)ccc1C | 0.97&0.88 | -0.18&-1.7
Cc1ccc(-c2n[nH]c3c2C(c2ccccc2)NC3=O)cc1 (centres undefined) | 0.92 | -2.5
COc1ccc(-c2c(C)nn3c(NCC(C)c4ccccc4)cc(C)nc23)cc1OC (centres undefined) | 0.95 | -1.5
O=C(NCc1cccs1)[C@H](Cc1ccccc1)N1Cc2ccccc2C1=O | 0.52 | -1.3
Cc1ccc(NC(=O)C2CCN(S(=O)(=O)c3ccc4c(c3)CCC(=O)N4)CC2)cc1 | 1 | 0.53
COc1ccc(-n2nc(C(=O)Nc3cccc(Cl)c3)c3ccccc3c2=O)cc1 | 1.1 | 1.9
Cc1nc2c(C(=O)O)cnn2c(C)c1Cc1c(F)cccc1Cl | 0.95 | -1.2
Nc1nnnn1Cc1nc2ccccc2[nH]1 | 1 | 0.61
Cc1onc(-c2ccccc2Cl)c1C(=O)N1CCCC(C)C1 (centres undefined) | 1.1 | 1.1

Single records, from the list above.
Cc1onc(-c2ccccc2Cl)c1C(=O)N1CCCC(C)C1 (centres undefined) is listed with CBX7 AlphaScr = 1.1; CBX7 AlphaScr z-score = 1.1
O=C(NCc1ccccc1Cl)C1CCCN(C(=O)c2cnn(-c3ccccc3)c2-n2cccc2)C1 (centres undefined) is listed with CBX7 AlphaScr = 0.88; CBX7 AlphaScr z-score = -0.88
O=C(NCc1cccs1)[C@H](Cc1ccccc1)N1Cc2ccccc2C1=O is listed with CBX7 AlphaScr = 0.52; CBX7 AlphaScr z-score = -1.3

(further entries)
smiles | CBX7 AlphaScr | CBX7 AlphaScr z-score
Cc1ccc(-c2nc(CS(=O)(=O)CC(=O)Nc3cccc(C(F)(F)F)c3)c(C)o2)cc1 | 0.98 | -0.041
Cc1ccc(NC(=O)c2cc(C3CC3)on2)cc1 | 1 | 0.31
Cc1ccc(CCN2CC(C(=O)NCCCOC(C)C)CC2=O)cc1 (centres undefined) | 1 | 0.089
CC(CCc1ccccc1)NC(=O)c1cc(-c2ccncc2)nc2ccccc12 (centres undefined) | 1.1 | 0.061
COc1ccc(S(=O)(=O)CCc2nnc(-c3ccncc3)o2)cc1 | 1 | 0.084
COc1cc2c(C(=O)NCc3cccs3)cn(C)c(=O)c2cc1OC | 1 | 0.62
C=CCNC(=O)C1CCN(C(=O)C2CCN(S(=O)(=O)c3ccc(C)cc3)CC2)CC1 | 0.95 | -1.1
CCC(C)NC(=O)CN1CCN(Cc2ccccc2F)C1=O (centres undefined) | 0.92 | -1.1
Cc1ccc(C)c(Nc2nc(-c3ccc(-c4ccccc4)cc3)cs2)c1 | 0.68 | -5
CC(=O)NC1C(OCc2ccccc2)OC2COC(C)(C)OC2C1O (centres undefined) | 0.97 | -0.92
CCOC(=O)c1sc(NC(=O)c2c(-c3ccccc3Cl)noc2C)nc1C | 1.2 | 3.5
O=C(NCc1ccc2c(c1)OCO2)C1CCC(=O)N1C1CCCC1 (centres undefined) | 1 | 0.92
CC(C)CN(CC(C)C)C(=O)c1csc2c1CCCC2 | 0.98 | -0.66
CCCn1c(=N)n(CC(O)c2ccccc2)c2ccccc21 (centres undefined) | 1 | 0.43
COc1ccc(-c2nc(-c3ccccc3)c(-c3ccc(Cl)cc3)[nH]2)cc1 | 0.74 | -3.1
CCOc1ccc(CCNc2ccc3nnc(-c4ccc(F)cc4)n3n2)cc1OCC | 0.86 | -1.8
CCOC(=O)c1cnc2cc(C(F)(F)F)ccc2c1N1CCC(Cc2ccccc2)CC1 | 1.1 | 1.1
Cc1ccc(NC(=O)C2(S(=O)(=O)c3ccc(Cl)cc3)CC2)cc1 | 1.1 | 0.34
CC1CCN(CCCNC(=O)c2ccc3c(c2)NC(=O)CN3C)CC1 | 1.1 | 0.074
Cc1cc(C)cc(Nc2cc(C)nc3nc(C)nn23)c1 | 1 | 0.28

A portion of the results above:
smiles | CBX7 AlphaScr | CBX7 AlphaScr z-score
Cc1ccc(-c2nc(CS(=O)(=O)CC(=O)Nc3cccc(C(F)(F)F)c3)c(C)o2)cc1 | 0.98 | -0.041
Cc1ccc(NC(=O)c2cc(C3CC3)on2)cc1 | 1 | 0.31

The list goes on.
smiles | CBX7 AlphaScr | CBX7 AlphaScr z-score
COc1ccccc1N1CCN(CCCNC(=O)c2ccc3c(c2)NC(=O)c2ccccc2N3)CC1 | 1.1 | 1.1
COc1ccc(-n2nc3c(c2NC(=O)c2ccc(C)cc2)CS(=O)(=O)C3)cc1 | 1 | 0.5
O=C(c1cnc(N2CCN(c3ccccn3)CC2)c2ccccc12)N1CCN(c2ccccc2)CC1 | 0.94 | -1.5
COc1ccc(C2(C(=O)Nc3cccc(C)c3)CCCC2)cc1OC | 1.1 | 1.8
Cc1ccc(Nc2nnc(-c3ccc(C)c(S(=O)(=O)NCC4CCCO4)c3)c3ccccc23)c(C)c1 (centres undefined) | 0.73 | -3
Cc1ccc(C2CC(C(F)(F)F)n3nc(C(=O)N4CCCCC4)cc3N2)cc1 (centres undefined) | 0.91 | -1.7
O=S(=O)(CCc1nnc(-c2ccccc2)o1)c1ccc(Cl)cc1 | 1.2 | 1.2
CC(C(=O)NC1CCCCC1)C1Sc2ccccc2N(Cc2ccc(F)cc2Cl)C1=O (centres undefined) | 0.95 | -0.98
Cc1ccc(S(=O)(=O)c2nc(-c3ccccc3C)oc2N2CCCCCC2)cc1 | 0.9 | -0.9
Cc1oc2ccccc2c1-c1csc(-c2ccccc2)n1 | 1.2 | 1.8
Cc1cccc2c1-c1sc(C(=O)NCCCN3CCCC(C)C3)cc1CO2 (centres undefined) | 1.2 | 6.4
COc1ccc(CCNC(=O)Cn2nc(Cc3cccnc3)c3ccccc3c2=O)cc1OC | 1 | -0.074
Cc1ccc(S(=O)(=O)c2nc(C)oc2N2CCCCC2)cc1 | 0.89 | -1.8
CCCNC(=O)CSc1nc2nc(C)c(Cc3ccc(C)cc3)c(C)n2n1 | 1.3 | 1.5
Brc1ccc(-c2noc(-c3cccs3)n2)cc1 | 1.1&1.2 | 2.2&5
Cc1ccc2cc(CCNC(=O)c3cccs3)c(=O)[nH]c2c1 | 1 | 1.4
O=C(NCCc1ccccc1)C1CCC(=O)N1CCc1ccccc1 (centres undefined) | 1.1 | 1
O=C(C1CCC1)N1CCc2cc(S(=O)(=O)NCCN3CCOCC3)ccc21 | 1 | 0.6
O=C(NCCN1CCOCC1)c1cnn2c(C(F)(F)F)cc(-c3ccc(F)cc3)nc12 | 1 | 0.066
Cc1oc(-c2cccc(Cl)c2)nc1CN1CCC(C(=O)N2CCCC2)CC1 | 1.4 | 3.5
Cn1c(CSc2nc3ccc(Br)cc3[nH]2)nc2ccccc21 | 1.1 | 0.35
CCN1CCCC1CNC(=O)c1ccc2c(c1)N(Cc1ccccc1)C(=O)c1ccccc1S2(=O)=O (centres undefined) | 0.97 | -0.89
COc1cccc(C2C(=O)N(C3CCCCC3)CC(=O)N2Cc2ccccc2Cl)c1 (centres undefined) | 0.97 | -0.34
Oc1ccc(-c2nc3ccc(Cl)cn3c2Nc2ccc3c(c2)OCO3)cc1 | 0.88 | -1.9
CC1=C(C#N)C(c2ccc(Cl)c(Cl)c2)C2=C(CCCC2=O)N1 (centres undefined) | 1 | 0.28
CCOc1ccc2nc(NC(=O)c3ccc(F)cc3)sc2c1 | 1 | 1.9
CN(C(=O)c1cc2c(s1)-c1ccccc1OC2)c1ccccc1F | 1.2 | 7.3
Cc1ccccc1N1CCN(CCOc2cccc(Cl)c2)CC1 | 0.99 | -0.13

Four structures out of the list, ordered by length of the SMILES, rising:
smiles | CBX7 AlphaScr | CBX7 AlphaScr z-score
Cc1ccccc1N1CCN(CCOc2cccc(Cl)c2)CC1 | 0.99 | -0.13
CCOc1ccc2nc(NC(=O)c3ccc(F)cc3)sc2c1 | 1 | 1.9
Cn1c(CSc2nc3ccc(Br)cc3[nH]2)nc2ccccc21 | 1.1 | 0.35
COc1cccc(C2C(=O)N(C3CCCCC3)CC(=O)N2Cc2ccccc2Cl)c1 (centres undefined) | 0.97 | -0.34
